Cruzain noTriton – qHTS Assay for Promiscuous and Specific Inhibitors of Cruzain (without detergent). Cruzipain (Trypanosoma cruzi), P25779. purified cruzain, Z-FR-AMC fluorescence, no detergent. Potency, µM, without a hit: max response, negative = inhibition, usual class: inhibitors. 200,000 compounds, 2.3% hits. AID 1476, 2009;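 also: plate controls were enzyme without inhibitor for no effect and buffer without enzyme for full effect; nearly all actives have a fitted effect of over 40% in size; top concentration of the series not given in the record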
Target sequence (P25779 123-467 limits assumed): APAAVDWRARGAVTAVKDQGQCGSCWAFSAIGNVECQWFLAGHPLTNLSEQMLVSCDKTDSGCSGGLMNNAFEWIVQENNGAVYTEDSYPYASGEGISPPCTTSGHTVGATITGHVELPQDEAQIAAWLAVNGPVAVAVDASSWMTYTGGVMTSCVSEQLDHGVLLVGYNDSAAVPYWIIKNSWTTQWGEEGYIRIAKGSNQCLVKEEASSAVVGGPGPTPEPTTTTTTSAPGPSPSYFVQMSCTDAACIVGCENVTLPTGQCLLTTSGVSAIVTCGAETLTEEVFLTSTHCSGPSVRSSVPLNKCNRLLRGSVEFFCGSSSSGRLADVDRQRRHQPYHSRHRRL
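Detergent-free condition (0.00005% Triton X-100) in acetate buffer pH 5.5 with DTT. 1.5 nM enzyme and compound were pre-mixed 15 min, then 2 uM Z-FR-AMC substrate added; reaction progress from fluorescence change between first and third reads (60 s).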
Cruzain inh Det – qHTS Assay for Promiscuous and Specific Inhibitors of Cruzain (with detergent) | 200,000 compounds, 0.43% hits | Potency, µM, for inactives: max response, negative = inhibition, actives largely listed as inhibitors | Cruzipain (Trypanosoma cruzi), P25779 | purified cruzain, Z-FR-AMC fluorescence, 0.01% Triton;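 also: plate controls were neutral wells for no effect and buffer without enzyme for full effect; nearly all actives have a fitted effect of over 40% in size; top concentration of the series not given in the record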
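Purified cruzain (1.5 nM final) was preincubated with compounds for 15 min at room temperature in 100 mM sodium acetate pH 5.5, 5 mM DTT, 0.01% Triton X-100. Reaction started with 2 uM Z-FR-AMC; AMC fluorescence change over 60 s gave activity.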
StopGo reporter – High Throughput Screening for Foot and Mouth Disease Virus Antivirals; human cells with a luciferase reporter of 2A StopGo recoding; control for the full effect not named in the record; Potency, µM (series often up to 57.9 µM), without a hit: at the highest dose signal change, negative = less light; 410,000 compounds, 1.2% hits; active = well fitted falling curve with a large enough effect; inconclusive = small, poorly fitted or top-dose-only effect; inactive = no such curve, though single readings can be large or run the other way; tested in HEK293T cells; also: nearly all actives have a fitted effect of over 45% in size; luciferase light after 4 h
Starred values were filed as active, the others as inactive; u = inconclusive; & = joins results of further samples; [ ] = remark or other dose. Unless noted, calls follow the shape of the dose curve; as a rule, active = well fitted curve in the direction sought with a large enough effect; inconclusive = small, poorly fitted or top-dose-only effect, or another doubt; inactive = no such curve, though single readings can be large; an effect the other way counts as inactive or inconclusive. Unless noted, % is scaled to controls: 0 for no effect and ±100 for the full control effect; potency is read from the fitted curve at half-maximal effect.

compound,Cruzain noTriton,Cruzain inh Det,StopGo reporter
N#Cc1ccc2c(c1)N(CCCN1CCC(O)CC1)c1ccccc1S2,-2%,-9.0%,-2%
COc1ccccc1CNc1ncncc1-c1cccc(C#N)c1,4%,0.7%,-12%
O=C1c2ccccc2C(Cc2ccnc(F)c2)(Cc2ccnc(F)c2)c2ccccc21,0%,-2.3%,-22%
CN(Cc1ccco1)c1cc(-c2ccc3c(c2)OCO3)ncn1,-3%,-5.9%,-7%
Cc1nc2cnc(Oc3cccc(Cl)c3)nc2n(C[C@H]2CCCO2)c1=O,-4%,-1.3%,u
CC(=O)O[C@@H]1CN2CCC1CC2,15%,-1.8%,-16%
COc1cc2c3cc1Oc1c(OC)c(OC)cc4c1C(Cc1cccc(c1)Oc1ccc(c(O)c1)CC3N(C)CC2)N(C)CC4 (stereo not given),u,-14%,-5%
N#CCCn1c(=O)c(-c2ccccc2)nc2cnc(OCc3ccccc3)nc21,1%,-4.0%,-21%
O=c1c(-c2cc(F)cc(F)c2)nc2cnc(Nc3ccccc3)nc2n1C[C@H]1CCCO1,5%,-0.2%,-13%
CC12CCC3c4ccc(OCc5ccccc5)cc4CCC3C1CC(O)C2O (stereo not given),u,-0.6%,8%
C/C=C(/C)C(=O)OC1C(OC(C)=O)[C@@]2(CO)C(O)C[C@@]3(C)C(=CCC4[C@@]5(C)CCC(OC6OC(C(=O)O)[C@@H](O[C@@H]7OC(CO)C(O)C(O)C7O)C(O)[C@H]6O[C@@H]6OC(CO)C(O)C(O)C6O)[C@](C)(CO)C5CC[C@@]43C)C2CC1(C)C (stereo not given in full),u,29%,-9%
O=C(O)CCC/C=C\C[C@@H]1CO[C@H](C(F)(F)F)O[C@@H]1c1ccccc1O,5%,-7.3%,-16%
O=c1c(CCc2ccccc2)nc2cncnc2n1Cc1ccccc1,3.2µM*,2.8%,-6%
COCCNc1nc(-c2cccc(NS(C)(=O)=O)c2)nc2ccccc12,-7%,-4.4%,-5%
O=C(c1ccco1)N1CCC2(CCN(Cc3cc(C(F)(F)F)cc(C(F)(F)F)c3)CC2)CC1,-12%,1.9%,-27%
CN(C)c1ccc(-c2nc(NCc3cccnc3)c3ccccc3n2)cc1,-12%,-14%,36%[activator]
Cc1noc(C)c1-c1ccc2ncnc(Nc3ccc(F)cc3)c2c1,-2%,-4.9%,-2%
O=C(c1cc(C(F)(F)F)cc(C(F)(F)F)c1)N1CCC2(CCCN(c3ccccn3)C2)CC1,13%,-3.0%,-8%
COc1cccc(Cn2c(=O)c(-c3cccs3)nc3cnc(N4CCNCC4)nc32)c1,u,-11%,13%
COc1ncc2nc(-c3cc(F)cc(F)c3)c(=O)n(C[C@H]3CCCO3)c2n1,5%,4.1%,-2%
O=C(O)C1(O)CC(O)C(O)C(O)C1 (stereo not given),-3%,5.7%,0%
COc1cccc(Nc2ncc3nc(-c4cc(F)cc(F)c4)c(=O)n(CCC#N)c3n2)c1,u,-2.4%,u
C[C@]12C[C@H](O)CC(CO)(CO)C1[C@H](O)C[C@@]13CC4[C@@H](CC12)[C@@]4(C)C3 (stereo not given in full),4%,-0.9%,-18%
COc1ccc(C(=O)N2CCC3(CC2)CCN(c2ccncc2)CC3)cc1,-3%,1.3%,19%
O=c1c2ccccc2oc2ccccc12,7%,-4.0%,45%[activator]
O=C(Nc1cccc(F)c1)N1CC[C@@]2(CCCN(C(=O)c3ccco3)C2)C1,-11%,-0.4%,0%
CN(C)c1ccc(-c2cc(Nc3ccc(F)cc3)ncn2)cc1,-18%,-9.6%,-7%
COc1ccccc1-c1nc(N(C)C)c2ccccc2n1,-4%,-0.4%,-12%
Cc1cccc(CNc2ncncc2-c2cccc(NS(C)(=O)=O)c2)c1,-5%,3.1%,-9%
CC(C)CC(N)C(=O)NC(C)C(=O)O (stereo not given),-3%,-2.3%,6%
COc1ccc2[nH]cc(CCNc3nc(-c4ccccc4CN(C)C)nc4ccccc34)c2c1,1%,1.3%,-22%
O=c1c(-c2cc(F)cc(F)c2)nc2cnc(Oc3ccccc3)nc2n1C1CC1,-19%,-1.8%,-9%
O=C(O)[C@@H]1CSC(c2cccnc2)N1 (stereo not given in full),-10%,1.4%,0%
NCCCCCc1cnc[nH]1,-4%,-1.0%,-17%
Cc1noc(C)c1-c1nc(Nc2ccncc2)c2ccccc2n1,0%,0.4%,-11%
O=C(Nc1cccc(F)c1)N1CCCC2(CCN(S(=O)(=O)c3ccccc3)CC2)C1,-2%,-3.5%,-3%
C/C=C/c1ccc(OC(C)[C@@H](O)c2ccc(O)c(OC)c2)c(OC)c1 (stereo not given in full),-1%,1.6%,-18%
COc1ncc2nc(-c3ccc(F)cc3)c(=O)n(Cc3ccc(F)cc3)c2n1,4%,-4.2%,-2%
COC(=O)N1CCC2(CCN(Cc3ccc(C#N)cc3)CC2)CC1,-12%,-2.2%,-7%
c1cnc(N2CC3(CCNCC3)C2)nc1,-5%,-2.5%,3%
c1ccc(Nc2ncnc3ccc(-c4cccnc4)cc23)cc1,-1%,0.8%,0%
O=c1c(-c2ccccc2)nc2cnc(Nc3ccccc3)nc2n1C[C@H]1CCCO1,-5%,0.9%,7%
CN(C)C(=O)c1ccc(-c2cncnc2Nc2ccc(F)cc2)cc1,-5%,9.2%,28%
N#Cc1cccc(NC(=O)N2CCC3(CC2)CCN(C(=O)c2ccco2)CC3)c1,2%,3.3%,10%
CCNc1ncc2nc(-c3cccs3)c(=O)n(C)c2n1,10%,3.5%,32%[activator]
COc1ccc(Oc2ncc3nc(-c4ccccc4)c(=O)n(C[C@H]4CCCO4)c3n2)cc1,2%,-4.3%,u
COCC(=O)N1CCC2(CCCN(c3ccncc3)C2)CC1,-1%,0.8%,1%
O=c1c(-c2ccc(F)cc2)nc2cnc(Nc3ccccc3)nc2n1Cc1cccs1,0%,-0.2%,-2%
COc1ccc(NC(=O)N2CC[C@@]3(CCCN(C(=O)c4cccn4C)C3)C2)cc1,-3%,-3.7%,-8%
CC1(C)C[C@@H]2C(=O)CCC3O[C@@]3(C)CCC21 (stereo not given in full),-1%,1.2%,2%
O=C(c1cnccn1)N1CCC[C@@]2(CCN(c3ccccn3)C2)C1,-3%,-0.1%,6%
FC(F)(F)c1ccccc1-c1cncnc1NCc1ccccc1,7%,3.9%,-8%
COc1cc2ccc(=O)oc2c(OC)c1OC,-7%,-2.1%,-1%
N#Cc1nn(-c2c(Cl)cc(C(F)(F)F)cc2Cl)c(N)c1S(=O)C(F)(F)F (stereo not given),-3%&0%,-1.5%&-4.3%,16%&-27%
COc1cc(-c2oc3cc(O)ccc3c(=O)c2O)ccc1O,-17%,-9.2%,41%[activator]
COc1ccccc1-c1nccc(Nc2ccc(F)cc2)n1,1%,-8.3%,-7%

The listing continues:
compound,Cruzain noTriton,Cruzain inh Det,StopGo reporter
CCOc1ccc(C(=O)c2ccc(OC)c(O)c2O)cc1,-1%,-11%,20%
O=C(Nc1cccc(F)c1)N1CC2(CCN(C(=O)c3ccncc3)CC2)C1,2%,-0.2%,-6%
CN(C)C(=O)c1ccc(-c2cc(-n3ccnc3)ncn2)cc1,13%,7.2%,-14%
O=C(Nc1ccccc1)N1CCCC2(CCN(S(=O)(=O)c3ccccc3)CC2)C1,-2%,2.2%,1%
O=C(c1ccco1)N1CCC2(CCN(Cc3ccccc3)CC2)CC1,-2%,2.0%,4%
O=C(Oc1ccccc1)N1CCC2(CCCN(Cc3ccccc3)C2)CC1,0%,1.1%,-11%
CCNc1ncc2nc(-c3ccc(OC)cc3)c(=O)n(-c3ccc(OC)cc3)c2n1,7%,5.1%,-12%
O=C1/C(=C\c2ccccc2)C[C@@]2(O)[C@H]3Cc4ccc(O)c5c4[C@@]2(CCN3CC2CC2)[C@@H]1O5,11%,0.4%,22µM*
CC1(C)CCC2(C(=O)O)CC[C@]3(C)C(=CCC4[C@]5(C)CCC(O)C(C)(C)C5C(O)C[C@]43C)C2C1 (stereo not given in full),-13%,1.9%,-9%
O=c1c(-c2ccc(F)cc2)nc2cnc(N3CCOCC3)nc2n1Cc1ccc(F)cc1,-16%,5.1%,-8%
Cn1cc(-c2nc3cnc(Oc4ccccc4)nc3n(Cc3cccs3)c2=O)c2ccccc21,-7%,1.2%,-23%
O=c1c(-c2ccc(F)c(F)c2)nc2cncnc2n1Cc1ccccc1Cl,-20%,-7.0%,-29%
COC(=O)c1cc(OC)c(=O)c2c(OC)c(OC)ccc2c1,-5%,1.3%,u
CC(=O)Nc1c(I)cc(I)c(C(=O)O)c1I,3%,4.7%,-14%
CN(C(=O)Cc1ccccc1)[C@H](CN1CCCC1)c1ccccc1,1%,-1.0%,7%&-16%
CC(C)c1c(O)ccc2c1CCC1[C@@](C)(C=O)CCC[C@@]21C (stereo not given in full),-15%,-3.5%,-23%
Cc1ccc2c(c1)C(=O)C1(O)CCN(c3ccccc3)C1=N2 (stereo not given),3%,-1.0%,-16%[97.4 µM]
COCCn1c(=O)c(C)nc2cnc(N3CCN(C)CC3)nc21,u,u,-21%
Clc1ccccc1-c1cncnc1NCCN1CCOCC1,-5%,1.3%,17%
COc1ccc(-n2c(=O)c(-c3cccs3)nc3cnc(Oc4ccccc4)nc32)cc1,-5%,-3.7%,1%
Cc1cccc(CNc2ncncc2-c2cccc(C#N)c2)c1,4%,6.2%,-9%
COCC(=O)N1CCC2(CCCN(Cc3ccccc3OC)C2)CC1,1%,4.0%,-7%
O=c1c(-c2ccc(F)c(F)c2)nc2cncnc2n1Cc1ccccc1,-1%,2.7%,-25%
CC(C)=CCCC1(C)C=Cc2c(O)c3c(c(CC=C(C)C)c2O1)OC12C(=CC4CC1C(C)(C)OC2(C/C=C(/C)C(=O)O)C4O)C3=O (stereo not given),u,-7.7%,10µM*

Of the compounds above, 5 have a thiophene ring, fused or not.
compound,Cruzain noTriton,Cruzain inh Det,StopGo reporter
COc1cccc(Cn2c(=O)c(-c3cccs3)nc3cnc(N4CCNCC4)nc32)c1,u,-11%,13%
CCNc1ncc2nc(-c3cccs3)c(=O)n(C)c2n1,10%,3.5%,32%[activator]
O=c1c(-c2ccc(F)cc2)nc2cnc(Nc3ccccc3)nc2n1Cc1cccs1,0%,-0.2%,-2%
Cn1cc(-c2nc3cnc(Oc4ccccc4)nc3n(Cc3cccs3)c2=O)c2ccccc21,-7%,1.2%,-23%
COc1ccc(-n2c(=O)c(-c3cccs3)nc3cnc(Oc4ccccc4)nc32)cc1,-5%,-3.7%,1%

The list continues:
compound,Cruzain noTriton,Cruzain inh Det,StopGo reporter
CCNc1ncc2nc(-c3ccccc3)c(=O)n(C3CC3)c2n1,u,-2.1%,6%
COc1ccc(CNc2ccnc(-c3ccoc3)n2)c(OC)c1,-15%,0.0%,-24%
O=C(Nc1ccccc1)N1CCC2(CC1)CCN(S(=O)(=O)c1ccccc1)CC2,-2%,1.2%,-1%
CN1CCC2(CC1)CCN(C(=O)c1cc(C(F)(F)F)cc(C(F)(F)F)c1)CC2,-11%,2.1%,-6%
CC(C)NC(=O)N1CCC2(CC1)CCN(C(=O)c1ccco1)CC2,6%,6.1%,-1%
CCCn1c(=O)c2[nH]c(-c3ccccc3)nc2n(CCC)c1=O,2%,0.6%,-9%&-4%
COc1cccc(-c2nc(NCCNC(C)=O)c3ccccc3n2)c1,-11%,2.2%,11%
CS(=O)(=O)Nc1cccc(-c2ccc3ncnc(N4CCOCC4)c3c2)c1,-2%,-6.2%,-13%
COc1ccc(-n2c(=O)c(-c3ccccc3)nc3cnc(N4CCN(C)CC4)nc32)cc1,-2%,0.2%,-4%
O=c1c(CCc2ccccc2)nc2cnc(Oc3cccc(Cl)c3)nc2n1C[C@H]1CCCO1,1%,-0.9%,6%
N#Cc1cccc(NC(=O)N2CCCC3(CCN(C(=O)c4csnn4)CC3)C2)c1,3%,0.6%,-12%
O=C(c1csnn1)N1CCC[C@@]2(CCN(Cc3ccncc3)C2)C1,1%,-3.6%,-4%
CN(C)Cc1ccccc1-c1cncnc1Nc1ccncc1,8%,3.1%,-12%
O=C(Oc1ccccc1)N1CCC[C@@]2(CCN(c3ccncc3)C2)C1,4%,1.2%,-6%
C[C@@H](N)Cn1ccc2cc(F)c(Cl)cc21,0%,-10%,-24%

High-throughput results from PubChem.

This is a subset; count on the stated rates, not on these rows.
